# MLL AF4-AF9 inh: MLL-AF4/AF9 protein interaction inhibition; P42568; AlphaScreen, biotin-AF4 peptide binding to FLAG-AF9; inhibition, % at 10 µM; 350,000 compounds, 0.47% hits; AID 651704;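 active = every replicate reaching a set inhibition limit, whatever the replicate mean, cut at about 25% in these data; inconclusive = mean inhibition reaches that limit but some replicates miss it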;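 also: 0% = plate neutral control median and 100% = total signal loss; the record names both 10 and 1 µM as test concentration; the first replicate is given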
# Target sequence (P42568 whole entry, looked up): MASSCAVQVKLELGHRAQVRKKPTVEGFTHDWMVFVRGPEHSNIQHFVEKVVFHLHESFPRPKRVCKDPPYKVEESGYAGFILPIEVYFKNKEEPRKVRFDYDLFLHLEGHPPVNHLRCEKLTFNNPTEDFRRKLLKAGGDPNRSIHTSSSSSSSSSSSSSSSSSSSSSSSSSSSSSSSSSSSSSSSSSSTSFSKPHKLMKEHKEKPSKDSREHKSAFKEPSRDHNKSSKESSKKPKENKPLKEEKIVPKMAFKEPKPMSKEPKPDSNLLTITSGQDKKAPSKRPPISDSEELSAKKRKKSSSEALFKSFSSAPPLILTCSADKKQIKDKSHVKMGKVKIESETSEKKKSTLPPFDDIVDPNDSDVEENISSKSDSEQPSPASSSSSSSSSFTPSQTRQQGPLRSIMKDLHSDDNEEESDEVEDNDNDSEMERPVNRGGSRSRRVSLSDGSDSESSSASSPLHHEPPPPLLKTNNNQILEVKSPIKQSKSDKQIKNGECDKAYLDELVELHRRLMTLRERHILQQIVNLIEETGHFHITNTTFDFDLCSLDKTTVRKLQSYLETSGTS
# Beta apoptosis: beta cell apoptosis inhibition | protection from apoptosis, % (test concentration not listed) | 300,000 compounds, 0.8% hits | INS-1E cytokine-induced death, ATP luminescence, 48 h; percent of positive-control rescue, neutral wells zero;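 active = all replicates at 75% or more, or half of them and the mean; inconclusive = half reach 75% but not the mean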;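 also: 0% = cytokine-treated negative control wells and 100% = positive control rescue; higher means more ATP so stronger rescue from cytokine killing; wells of about 40 µL received 100 nL stock; the first replicate is given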
# Ecoli rRNA inh: selective bacterial rRNA inhibition in E. coli. E. coli WT GFP vs humanized-ribosome RFP mutants, fluorescence, 24 h; active compounds read low; DMSO median 0, no signal -100. GFP signal change (wild-type ribosome), % (no concentration beside the values). AID 720706. 350,000 compounds, 1.6% hits;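 active = significant combined selectivity score with lowered wild-type GFP, culture density cut under 30%, mutant RFP and density less affected; inactive = any of these conditions unmet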; also: one replicate is shown; some compounds called inactive have numbers as strong as hits
# UCH37 DUB inh: human UCH37 deubiquitinating enzyme inhibition; Q9Y5K5; purified proteasome/UCH37, Ub-AMC cleavage fluorescence; inhibition, % (concentration not given with the values); 330,000 compounds, 0.33% hits; AID 588478;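 active = mean of two replicates above 20%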;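 also: 0% = compound-free wells with enzyme and 100% = wells lacking proteasome; stock transfer was 100 nL into about 20 µL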
# Target sequence (Q9Y5K5 whole entry, looked up): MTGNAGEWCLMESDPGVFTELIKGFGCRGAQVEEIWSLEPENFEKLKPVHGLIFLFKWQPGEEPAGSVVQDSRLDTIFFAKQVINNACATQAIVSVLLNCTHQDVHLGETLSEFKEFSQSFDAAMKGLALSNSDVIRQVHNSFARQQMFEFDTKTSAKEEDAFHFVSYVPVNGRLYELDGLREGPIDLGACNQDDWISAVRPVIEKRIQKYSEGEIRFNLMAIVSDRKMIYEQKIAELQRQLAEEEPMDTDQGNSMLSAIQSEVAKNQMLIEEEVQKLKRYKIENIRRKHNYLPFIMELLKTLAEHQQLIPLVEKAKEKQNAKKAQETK
#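 assay system = human UCH37 enzyme supplied as purified proteasome complex | amount = proteasome at 0.15 nM in the dispensed enzyme solution | schedule = 30 min compound-proteasome preincubation then 25 min substrate reaction, room temperature | measured by = fluorescence, ex 355 nm, em 460 nm | benchmarks = no-proteasome wells (full inhibition) and compound-free wells (no inhibition)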
# FGF22 binding: binders of recombinant human FGF22 by thermal shift; Q9HCT0; SYPRO orange fluorescence; percent of sucrose octasulfate shift, DMSO zero; calls only at 9.99 µM; 340,000 compounds, 1.5% hits; AID 651658;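 active = melting point raised past a set limit in the mean and every replicate; inconclusive = no clear call; three in four hits are not shown here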
# Target sequence (Q9HCT0 whole entry, looked up): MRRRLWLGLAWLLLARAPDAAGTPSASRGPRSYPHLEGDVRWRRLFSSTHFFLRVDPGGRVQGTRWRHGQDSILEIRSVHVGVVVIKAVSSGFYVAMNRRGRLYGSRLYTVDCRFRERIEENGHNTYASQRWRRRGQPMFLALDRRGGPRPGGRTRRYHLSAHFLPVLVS
# Bfl-1 A1 inh: inhibitors of the anti-apoptotic protein A1, read as caspase activation. MEF A1-2A-BIM cells, Caspase-Glo 3/7 luminescence, 3 h; percent of clofoctol response, vehicle zero. caspase activation, % (concentration not given with the values). 330,000 compounds, 0.066% hits. AID 2462;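 active = over half of replicate activation scores above 10%, or exactly half above 10 with the replicate mean above 10; inconclusive = replicate mean below 10 yet half the replicates above 10; inactive = over half of replicates below 10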;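 also: wells of about 30 µL received 50 nL stock; many hits fall short of the cut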
# E coli growth: inhibitors of Escherichia coli growth | OD600, 23 h; active compounds read low | OD600 absorbance (test concentration not listed) | 330,000 compounds, 0.21% hits;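 active = OD600 absorbance below the run mean of sample wells minus 3.6 SD, in any replicate, cut at about 0.56 in these data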;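 also: stock transfer was 300 nL into about 60 µL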
# T cruzi inh: blocks replication of Trypanosoma cruzi. inhibition, % (test concentration not listed). 300,000 compounds, 1.4% hits. AID 1885. T. cruzi beta-gal in NIH3T3, luminescence, 90 h;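 active = mean inhibition across valid replicates above about 55%, limit read from the data; inconclusive = mean below that limit but half or more replicates reach it; inactive = mean below it, under half of replicates reach it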;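 also: signal also drops with host cell toxicity which is not excluded here; 0% = plate median of DMSO wells and 100% = zero luminescence signal; higher percent means less beta-gal luminescence so fewer parasites; stock transfer was 50 nL into about 50 µL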
# Ecoli rRNA inh OD600: also measured in Ecoli rRNA inh; calls as there; OD600 change, %; measured here: OD600 growth;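 optical density of the mix in the first replicate; 0 = DMSO median and -100 = no signal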
# Ecoli rRNA inh RFP: second read-out of Ecoli rRNA inh, no call of its own (marks repeat the call); RFP signal change, %; measured here: RFP humanized mutant strains;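 first replicate; 0 = DMSO median and -100 = no signal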
# An asterisk follows results filed as active; i = inactive; ? = inconclusive; / = not tested or not shown. A portion of the library. The share of hits here may be higher or lower than overall.
SMILES,MLL AF4-AF9 inh,Beta apoptosis,Ecoli rRNA inh,Ecoli rRNA inh OD600,Ecoli rRNA inh RFP,UCH37 DUB inh,FGF22 binding,Bfl-1 A1 inh,E coli growth,T cruzi inh
COc1ccc2c(n1)Sc1nc3ccccc3nc1N2,-2.0,9.7,1.1,-7.1,-2.5,4.5,i,-7.9,0.668,-5.1
COc1ccc(NC(=O)Nc2cccc(Cl)c2Cl)c(OC)n1,-1.7,7.7,-0.7,-2.5,-1.6,3.8,i,0.6,0.702,-7.4
CCOC(=O)C1CCN(Cc2cc(=O)oc3cc(C)ccc23)CC1,-1.0,-0.4,-11.4,-13.9,-4.2,4.6,i,0.3,0.639,-5.8
C=CCn1c(SCC(=O)c2ccc(OC)cc2)nnc1-c1cc2cccc(OC)c2o1,/,6.2,/,/,/,2.8,/,-1.1,0.718,11.2
CCN(C(=O)c1cc(S(=O)(=O)N2CCOCC2)cn1C)c1cccc(C)c1,-7.2,-1.6,2.6,7.5,2.6,4.0,i,0.5,0.767,-3.2
S=c1[nH]nc(COc2ccc(Cl)cc2)n1-c1ccccc1,-0.8,4.1,-20.4,-18.1,-4.5,1.3,i,0.7,0.688,17.3
O=C(C1=C(O)C(=O)N(Cc2ccco2)C1c1cccc(O)c1)c1ccco1 (stereo not given),-9.1,/,2.8,9.8,-1.8,10.3,i,-0.9,0.645,-9.7
Cc1ccc2nc(Cl)c(C3CC(c4cccs4)=NN3C(=O)CCCC(=O)O)cc2c1 (stereo not given),-1.6,-4.6,14.3,16.1,0.4,/,i,0.0,/,-11.1
COc1cccc(C2=CC(c3ccc(OC)c(OC)c3OC)n3nnnc3N2)c1 (stereo not given),/,-0.4,/,/,/,-5.2,/,1.1,0.756,1.6
Cc1cccc(CN2CCC(CNC(=O)CCNC(=O)Cn3ccc4ccccc4c3=O)CC2)c1,/,/,/,/,/,1.1,/,-0.2,0.675,5.0
COc1ccc(C2=Nn3c(nnc3-c3ccccc3Cl)SC2)cc1OC1CCCC1,9.6,?,-23.5,-21.0,-3.5,5.4,i,-0.4,0.81,/
COc1cccc(NC(=O)CSCc2n[nH]c(=O)[nH]2)c1,/,-6.8,/,/,/,5.3,/,0.9,0.682,-11.8
Cc1ccc(C(=O)COC(=O)CNS(=O)(=O)c2ccc(C)cc2)cc1,-1.4,-6.0,9.2,4.0,0.2,1.2,i,1.9,0.683,-11.2
COC(=O)[C@@H](CC(C)C)N(Cc1ccccc1)S(=O)(=O)N(Cc1ccccc1)[C@@H](CC(C)C)C(=O)OC,2.1,42.0,15.4,10.7,-6.2,4.3,i,2.9,/,/
COc1cccc(C(=O)NCCCNC(=O)c2ccccn2)c1,-0.4,/,-0.2,4.8,-1.1,1.1,i,0.0,0.694,0.5

# Part of the list above, reformatted.
SMILES	MLL AF4-AF9 inh	Beta apoptosis	Ecoli rRNA inh	Ecoli rRNA inh OD600	Ecoli rRNA inh RFP	UCH37 DUB inh	FGF22 binding	Bfl-1 A1 inh	E coli growth	T cruzi inh
COc1ccc2c(n1)Sc1nc3ccccc3nc1N2	-2.0	9.7	1.1	-7.1	-2.5	4.5	i	-7.9	0.668	-5.1
COc1ccc(NC(=O)Nc2cccc(Cl)c2Cl)c(OC)n1	-1.7	7.7	-0.7	-2.5	-1.6	3.8	i	0.6	0.702	-7.4
CCOC(=O)C1CCN(Cc2cc(=O)oc3cc(C)ccc23)CC1	-1.0	-0.4	-11.4	-13.9	-4.2	4.6	i	0.3	0.639	-5.8
C=CCn1c(SCC(=O)c2ccc(OC)cc2)nnc1-c1cc2cccc(OC)c2o1	/	6.2	/	/	/	2.8	/	-1.1	0.718	11.2
CCN(C(=O)c1cc(S(=O)(=O)N2CCOCC2)cn1C)c1cccc(C)c1	-7.2	-1.6	2.6	7.5	2.6	4.0	i	0.5	0.767	-3.2
S=c1[nH]nc(COc2ccc(Cl)cc2)n1-c1ccccc1	-0.8	4.1	-20.4	-18.1	-4.5	1.3	i	0.7	0.688	17.3
O=C(C1=C(O)C(=O)N(Cc2ccco2)C1c1cccc(O)c1)c1ccco1 (stereo not given)	-9.1	/	2.8	9.8	-1.8	10.3	i	-0.9	0.645	-9.7
Cc1ccc2nc(Cl)c(C3CC(c4cccs4)=NN3C(=O)CCCC(=O)O)cc2c1 (stereo not given)	-1.6	-4.6	14.3	16.1	0.4	/	i	0.0	/	-11.1

# (cont.)
SMILES,MLL AF4-AF9 inh,Beta apoptosis,Ecoli rRNA inh,Ecoli rRNA inh OD600,Ecoli rRNA inh RFP,UCH37 DUB inh,FGF22 binding,Bfl-1 A1 inh,E coli growth,T cruzi inh
O=C(/C=C/c1cc(Br)ccc1O)c1ccco1,7.9,9.5,-61.4,-82.0,-24.9,4.2,i,0.2,0.588,-19.8
COc1ccccc1N(CC(O)CN1C(C)CCCC1C)S(=O)(=O)c1ccccc1 (stereo not given),2.0,-3.3,2.9,0.2,-3.5,7.4,i,1.1,0.658,1.9
CN(C)S(=O)(=O)N(CC(=O)N1CCOCC1)c1ccccc1,5.2,-6.0,2.7,-0.2,-5.5,0.0,/,0.0,0.689,-24.8
COc1ccc(-n2nnnc2SCC(=O)Nc2nnc(C)s2)cc1,/,-2.4,-2.6,-4.7,6.0,5.0,/,-1.5,0.694,-0.8
Cc1ccc(S(=O)(=O)N2CCN(C(=O)C3CCCC3)CC2)cc1C,0.3,-1.1,6.6,0.5,-1.6,5.5,i,1.1,0.708,-4.4
CCN(CC)C(=O)CSc1nc2ccccc2c(=O)n1CCC(=O)N1CCN(c2ccccc2)CC1,-1.0,-7.3,7.1,12.3,1.1,4.5,i,0.9,0.709,16.8
CC(=O)N1CCc2cc(S(=O)(=O)NC(CC(C)C)C(=O)N3CCCC3)ccc21 (stereo not given),-1.5,-3.4,2.0,7.3,-2.5,0.0,i,0.4,0.718,-14.7
Cc1cccc2cc(C#N)c(NCCNC(=O)NC3CCCCC3)nc12,/,/,/,/,/,-48.1,/,-0.9,0.725,-0.8
CC(=O)Nc1ccc(S(=O)(=O)NCCC(=O)N2CCC(Cc3ccccc3)CC2)cc1,3.2,3.8,-5.7,-5.1,-2.1,2.6,i,0.3,0.621,/
COc1ccc(NS(=O)(=O)c2cc(NC(=O)c3ccco3)ccc2N2CCCC2)cc1,/,1.1,/,/,/,2.6,/,-1.0,0.749,8.4
CCN(CC)S(=O)(=O)c1cccc(C(=O)OCC(=O)N2CC(=O)Nc3ccccc32)c1,/,-2.8,/,/,/,1.4,/,0.6,0.688,-0.3
CCCCC(CC)CNC(=O)CC1Nc2c3ccccc3nc(=S)n2C1=O (stereo not given),-1.3,-2.3,8.1,11.7,-1.4,3.3,i,-0.1,0.683,-4.3
CCCn1c(C)cc(C(=O)Cn2nnc3ccccc3c2=O)c1C,6.0,2.7,-2.3,-1.8,-12.1,0.2,i,-1.4,0.696,12.1
CC(C)(C)c1ccc(OCC(=O)N2CCN(c3ncccn3)CC2)cc1,/,-4.5,/,/,/,-3.9,/,0.3,0.704,0.3
CC(=O)Nc1ccc(S(=O)(=O)N2CCN(C(=O)c3ncoc3-c3ccc(C)cc3)CC2)cc1,-7.6,0.6,-2.5,-13.8,1.4,2.5,i,0.6,0.669,12.0
O=C1[C@@H]2Cc3c([nH]c4ccccc34)CN2C(=O)CN1CCO,3.7,-11.6,6.8,7.2,-2.8,6.1,i,0.4,0.655,-3.0
CS(=O)(=O)N(CC(=O)N1CCc2ccccc2C1)c1ccccc1F,-5.0,-2.7,4.8,2.2,3.1,4.6,i,0.1,0.662,2.8
CC(C)CSC1=NSC2=NC(=O)/C(=C\c3ccccc3)C(=N)N12,0.3,3.6,11.3,7.9,0.0,2.2,/,-0.4,0.709,16.7
CCn1c(SCC(=O)Nc2ccc(N3CCOCC3)cc2)nnc1-c1ccco1,1.3,/,6.9,8.5,2.1,-1.7,i,-0.2,0.678,-8.7
CN=C1SC(CC(=O)Nc2cccc(Cl)c2Cl)C(=O)N1C (stereo not given),/,-1.7,/,/,/,2.7,/,0.3,0.757,25.6
O=C(CNC(=O)c1cccs1)Nc1cccc(S(=O)(=O)N2CCOCC2)c1,1.5,/,4.2,4.1,-2.0,0.1,i,/,0.679,/
O=C(NCCN1CCN(C(=O)c2cccc(Br)c2)CC1)C(=O)Nc1ccc(Br)cc1,2.1,2.6,0.6,1.2,3.0,1.9,i,0.4,0.688,24.8
O=C(C1CC1)N(Cc1ccco1)c1nc(-c2ccccc2)cs1,/,-2.0,/,/,/,0.7,/,0.5,0.66,4.7
Cc1cccc(C(=O)Oc2ccc(/C=N/NC(=O)c3ccncc3)cc2)c1,-1.2,0.8,9.6,8.3,-3.3,/,i,-1.7,/,-15.9
CCCCOC(=O)NCN1C(=O)C2C3C=CC(C3)C2C1=O (stereo not given),/,1.8,/,/,/,3.3,/,0.1,0.696,1.1
O=C(Nc1cc(Cl)cc(Cl)c1)N1CCCC1,-7.8,-4.0,-52.4,-50.0,5.7,0.6,i,-0.5,0.647,0.2
Cc1ccn2c(C(=O)CSc3ccc(Cl)cc3Cl)c(C)nc2c1,/,4.0,/,/,/,3.0,/,-0.7,0.745,-14.9
NC(=O)c1cccc(NC(=O)CCCCC(=O)Nc2cccc(C(N)=O)c2)c1,-2.9,-5.5,11.6,20.8,-0.3,4.6,i,1.5,0.667,-9.2
Cc1ccc(OCC(=O)N2CCN(S(=O)(=O)c3ccccc3)CC2)c([N+](=O)[O-])n1,-14.1,/,/,/,/,6.6,i,0.7,0.721,9.3
COc1cc(OC)cc(C(=O)N2CCN(C(=O)c3cccc(F)c3)CC2)c1,/,-2.7,/,/,/,-0.1,/,-0.3,0.683,-14.0
O=C(CSc1nnc(CNC(=O)c2cccc(C(F)(F)F)c2)o1)NCc1ccco1,-0.5,1.7,5.0,7.3,-1.8,4.0,i,-0.2,0.741,7.0
CS(=O)(=O)c1ccc(SCC(=O)NC2CCS(=O)(=O)C2)c([N+](=O)[O-])c1 (stereo not given),-13.1,/,-1.7,7.4,-2.9,4.7,i,-0.5,0.722,12.8
CC(C)N(Cc1nnc(-c2ccc(Cl)cc2)o1)C(=O)c1cc2ccccc2o1,-0.4,-4.1,-33.0,-66.3,11.3,0.5,i,0.0,0.678,/
COc1cccc(SCC2(O)CCN(C(=O)c3ccc(Cl)cc3)CC2)c1,-4.0,-4.9,-17.5,-24.5,-4.8,1.6,i,-0.2,0.671,6.5
CCN(c1ccccc1)S(=O)(=O)c1ccc(OC)c(NC(=O)C2CC2)c1,1.4,1.3,-5.9,-16.1,-4.2,3.8,i,0.4,0.675,/
O=C(Nc1ccc(N2CCCCC2)c(Cl)c1)c1ncn[nH]1,/,0.6,/,/,/,6.5,/,0.9,0.674,-2.5
COCCCn1c(SCC(=O)Nc2oc(C)c3c(C)n[nH]c(=O)c23)nc2sc3c(c2c1=O)CCC3,-2.8,/,1.8,-3.3,1.0,-0.4,i,0.0,0.65,2.1

# Assay outcomes: PubChem BioAssay, several laboratories
